TRPML1 agonist – agonists of human TRPML1 channel. TRPML1-expressing cells, Ca2+ dye fluorescence, FDSS; host cell line not named in the record; reference of the full effect not given here. activation, % (test concentration not listed). hit rate 0.12% among 410,000. Q9GZU1; in the data active = activation above about 50%; inconclusive = about 30% to 50%; inactive = below about 30%; further: 0% is about no effect; the text of the record puts the active cut at 80%
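Agonist activity was taken from a 110 s kinetic Ca2+ dye read on the FDSS after pinning compounds onto TRPML1-DL cells. The cells were seeded at 1,500/well with Tet inducer, incubated about 16 h, then dye-loaded at room temperature.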
TRPML1 inh – blocks the human TRPML1 channel | TRPML1-inducible cells, Ca2+ dye fluorescence, FDSS; hits give low values; inhibition of EC80 agonist-evoked calcium signal | activity change, negative = inhibition, % (test concentration not listed) | Q9GZU1 | hit rate 0.02% among 390,000; in the data active means activity change below about -50%; inconclusive means about -30% to -50%; inactive means above about -30%;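 further: stimulus is agonist 54-4 at its EC80 concentration; on the % scale 0 is the no-effect control and ±100 the full control effect; compound concentration not given in the record; the text of the record puts the active cut at -80%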
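Calcium fluorescence in TRPML1-DL cells induced overnight with Tet: a 110 s read after compound pin addition, then a 110 s antagonist read after challenge with 54-4 at 4 uM final (EC80).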
D2 agonist – human D2 receptor agonism in beta-arrestin assay. hit rate 0.084% among 360,000. P14416. DiscoveRx PathHunter D2 beta-arrestin, luminescence, 90 min; 100% = 57 uM dopamine signal. activation, % (no concentration beside the values). AID 624465; in the data active = activation above about 40%; inconclusive = about 15% to 40%; inactive = below about 15%; further: compound concentration not given in the record; the text of the record calls up to 30% inactive
Target sequence (P14416 whole entry, looked up): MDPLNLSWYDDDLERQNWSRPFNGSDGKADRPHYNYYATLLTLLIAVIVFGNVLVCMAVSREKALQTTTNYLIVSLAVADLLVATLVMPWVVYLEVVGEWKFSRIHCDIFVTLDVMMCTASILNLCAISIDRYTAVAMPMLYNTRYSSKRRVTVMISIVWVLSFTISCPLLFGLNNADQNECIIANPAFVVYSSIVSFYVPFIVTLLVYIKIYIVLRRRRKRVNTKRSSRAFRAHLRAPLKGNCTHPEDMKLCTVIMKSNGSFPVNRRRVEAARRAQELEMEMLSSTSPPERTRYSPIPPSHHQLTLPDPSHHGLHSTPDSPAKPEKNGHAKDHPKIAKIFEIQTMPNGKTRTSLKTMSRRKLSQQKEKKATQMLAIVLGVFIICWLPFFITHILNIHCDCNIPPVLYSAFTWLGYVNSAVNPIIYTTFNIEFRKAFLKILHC
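Agonist mode: compounds alone added to overnight-plated D2 PathHunter cells for 90 min at 37 C, with 57 uM final dopamine (EC100) defining full response. Beta-arrestin recruitment detected by chemiluminescent reagent, read after 1 h at ambient temperature.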
Six1-Eya2 blk – blocks human Six1 binding to Eya2; Q15475+O00167; AlphaScreen GST-Six1/His-Eya2 binding, biochemical; hits give low values; control for the full effect not named in the record; activity change, % (test concentration not listed); hit rate 0.56% among 360,000; AID 651725; in the data active = activity change below about -65%; inconclusive = about -30% to -65%; inactive = above about -30%; further: on the % scale 0 is the no-effect control and ±100 the full control effect; compound concentration not given in the record
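AlphaScreen luminescence read after one hour at 37 °C in darkness. Pin-transferred compounds met GST-Six1 and His-Eya2 protein (5X stock 250 nM/500 nM) plus glutathione donor and Ni-chelate acceptor beads (5X, 50 ug/mL).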
D2 potentiator – human D2 receptor positive allosteric modulation. P14416. AID 624464. DiscoveRx D2 beta-arrestin cells, luminescence, 90 min; 100% = 57 uM dopamine signal. potentiation, % (no concentration beside the values). hit rate 0.23% among 360,000; active = potentiation of 50% or more; inconclusive = 30% to 50%; inactive = 30% or less;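 further: compound concentration not given in the record; tested on top of an EC20 dose of dopamine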
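PathHunter D2 cells, attached overnight at 37 deg C, received compound in DMSO plus dopamine at EC20 (50 nM final) for 90 min at 37 deg C. Beta-arrestin recruitment was read as luminescence after 1 h with detection reagent at ambient temperature.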
PINK1 modulator – PINK1 expression modulation. PINK1 immunofluorescence, high-content cytometry, 24 h. Potency, µM (series often up to 76.6 µM), without a hit: at the top dose activation (PINK1 increase), usual class: activators. hit rate 0.2% among 410,000. AID 624263; active = well fitted activation curve with a large enough effect; inconclusive = small, poorly fitted or top-dose-only effect; inactive = flat fitted curve, though single readings scatter; cell line not stated here;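 further: potency means the concentration at half of the fitted maximal effect; % of control where 0% means no effect; nearly all actives have a fitted effect of over 65% in size; a mitochondrial uncoupler was the plate control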
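Cells are seeded, rested 12 hours, then given compound at five concentrations or DMSO for 24 hours. After fixation, blocking and antibody staining, PINK1 amount and mitochondrial localization are scored; CCCP serves as control.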
* = called active by the depositor; ? = inconclusive; . = not tested or not shown; [ ] = another dose, or the depositor's remark.

Below each SMILES: TRPML1 agonist | TRPML1 inh | D2 agonist | Six1-Eya2 blk | D2 potentiator | PINK1 modulator
O=C(O)c1cc(S(=O)(=O)N2CCCCC2)ccc1F
→ 0.2 | -3 | -3.1 | 10 | 4 | 2.7%[38.3 µM]
O=S1(=O)CC2SC(=S)N(Cc3ccccc3)C2C1 (configuration not stated)
→ 0.3 | -8 | -0.6 | 3 | -7 | 6.5%
CCOC1=C2[C@H](c3ccccc3)N(S(=O)(=O)c3ccc(C)cc3)[C@H](C(C)C)[C@H]2n2c(=O)n(-c3ccccc3)c(=O)n2C1
→ 0.3 | -15 | -5.2 | 0 | 0 | 5.2%
COc1ccc(CN(C)C(=O)[C@H](Cc2ccccc2)NC(=O)c2ccco2)c(OC)c1
→ -0.9 | 0 | 6.7 | -3 | 0 | 1.3%
CC(=O)c1cc2c(=O)c3cc(C)ccc3oc2nc1C
→ -1.7 | 0 | -3.1 | -4 | -11 | 4.5%
COC(=O)c1sc(S(=O)(=O)NC(C)C(=O)O)c(C(=O)OC)c1C (configuration not stated)
→ -0.1 | -4 | -2.1 | 9 | -9 | -0.1%
CCOC(=O)Cn1c(=O)c(C#N)cn(C(C)C)c1=O
→ 0.9 | ? | -1.1 | 2 | 7 | 0.2%
O=C(CCc1nnc(CCCc2ccccc2)o1)NCCN1CCOC1=O
→ 0.0 | -1 | -4.4 | 5 | -3 | 1.9%
COc1ccc(-c2cnnc(N/N=C/c3ccc(C)o3)n2)cc1
→ 0.8 | -1 | 1.5 | -6 | 16 | 2.8%
Cc1cc(NC(=O)CSCC(=O)N2CCN(c3ccccc3)CC2)no1
→ -0.1 | 4 | 0.4 | 2 | -7 | 0.8%

Next section; it opens with the three that closed the last part.
Below each SMILES: TRPML1 agonist | TRPML1 inh | D2 agonist | Six1-Eya2 blk | D2 potentiator | PINK1 modulator
O=C(CCc1nnc(CCCc2ccccc2)o1)NCCN1CCOC1=O
→ 0.0 | -1 | -4.4 | 5 | -3 | 1.9%
COc1ccc(-c2cnnc(N/N=C/c3ccc(C)o3)n2)cc1
→ 0.8 | -1 | 1.5 | -6 | 16 | 2.8%
Cc1cc(NC(=O)CSCC(=O)N2CCN(c3ccccc3)CC2)no1
→ -0.1 | 4 | 0.4 | 2 | -7 | 0.8%
S=C(NCc1ccncc1)Nc1ccccc1
→ 1.1 | 1 | 10.0 | 26 | 4 | 1.3%
c1ccc2oc(CCc3nc4ccccc4o3)nc2c1
→ -0.7 | -9 | -1.3 | 9 | 5 | 7.1%
CC(=O)Oc1cccc2c1C(=O)C1CC=CC(OC(C)=O)C1C2=O (configuration not stated)
→ -0.3 | -9 | -8.4 | ? | -23 | 0.7%
Cc1cccnc1NC(=O)c1ccc(S(=O)(=O)N2CCCCCC2)cc1
→ 0.1 | 14 | -0.2 | 2 | -6 | 2.6%
COc1cccc(C2=NN(C(=O)c3ccco3)C(c3ccco3)C2)c1 (configuration not stated)
→ 2.6 | 54 | ? | -3 | 8 | 1.4%
Cc1ccccc1C(=O)NCCN1CCOCC1
→ -0.1 | 6 | -2.4 | 7 | -2 | 1.8%
Cc1nnc(N)nc1C
→ -0.7 | 17 | -0.2 | 10 | -6 | 0.8%
O=C(Cn1c(=O)n(Cc2ccco2)c(=O)c2sc3ccccc3c21)Nc1ccc(F)cc1F
→ -0.4 | 1 | . | . | . | 3.4%
O=C1CC(c2ccccc2)CC2=C1C(c1ccccn1)Nc1ccccc1N2 (configuration not stated)
→ 0.1 | 6 | -2.4 | 1 | -35 | .
CN(CC(=O)Nc1ccccc1C(F)(F)F)C(=O)CSc1nnc(-c2ccncc2)n1C
→ 1.4 | 11 | 11 | -2 | 3 | -0.1%
Cn1c(SCc2ccc(F)cc2)nc2ccc(C(=O)NCc3ccccc3)cc21
→ 1.5 | 0 | . | . | . | 1.5%
COc1ccc(NC(=O)c2cc(C(C)C)on2)c(OC)c1
→ -1.5 | 9 | -5.1 | 2 | -2 | 2.7%
Cc1ccc(S(=O)(=O)NCC(=O)OCC(=O)NCc2ccc3c(c2)OCO3)cc1
→ 3.3 | 2 | -1.4 | 4 | 0 | -1.7%
CC(=O)NCc1ccc(C(=O)CCl)s1
→ 0.1 | 5 | -0.5 | -15 | 1 | -0.9%
O=C(CSc1nc2ncccc2[nH]1)Nc1ccc2c(c1)OCO2
→ -0.1 | -12 | 2.3 | 3 | -4 | -1.9%
S=c1[nH]c2ccccc2n1CCc1ccncc1
→ 0.5 | 2 | 2.1 | 0 | -12 | 5.5%
O=C(/C=C/c1ccc(Cl)c([N+](=O)[O-])c1)NCc1cccnc1
→ -1.2 | -8 | -3.2 | -3 | -7 | -1.2%
Cc1c(NC(=O)CC(O)(C(F)(F)F)C(F)(F)F)c(=O)n(-c2ccccc2)n1C
→ 0.2 | -12 | 0.3 | 5 | 6 | -1.2%[38.3 µM]
CCOC(=O)C1CCCN(C(=O)c2ccc3oc(CCc4ccccc4)nc3c2)C1 (configuration not stated)
→ 1.2 | -2 | -1.9 | -8 | -9 | 2.4%
CCOC(=O)[C@H]1[C@H]2COc3cc(OC)ccc3[C@@H]2N2C(=O)c3cc(OC)c(OC)cc3NC(=O)[C@@]12C
→ -1.1 | -21 | 0.1 | 1 | -23 | 2.4%

Some of the entries so far, as labelled records.
COc1ccc(NC(=O)c2cc(C(C)C)on2)c(OC)c1
- TRPML1 agonist = -1.5
- TRPML1 inh = 9
- D2 agonist = -5.1
- Six1-Eya2 blk = 2
- D2 potentiator = -2
- PINK1 modulator = 2.7%

Cc1ccc(S(=O)(=O)NCC(=O)OCC(=O)NCc2ccc3c(c2)OCO3)cc1
- TRPML1 agonist = 3.3
- TRPML1 inh = 2
- D2 agonist = -1.4
- Six1-Eya2 blk = 4
- D2 potentiator = 0
- PINK1 modulator = -1.7%

Other results.
Below each SMILES: TRPML1 agonist | TRPML1 inh | D2 agonist | Six1-Eya2 blk | D2 potentiator | PINK1 modulator
C=CCOC(=O)C1=C(C)NC(C)=C(C(=O)OCC=C)C1/C=C/c1ccccc1
→ 2.2 | -13 | -4.9 | 15 | -9 | 28%
COc1cccc(-c2cc(C(=O)N/N=C/c3ccco3)c3ccccc3n2)c1
→ -0.1 | -2 | -2.9 | ? | -10 | 4.1%
Cn1nccc1C(=O)NC1CCCc2c1cnn2-c1ccc(C(C)(C)C)cc1 (configuration not stated)
→ -0.4 | 34 | 6.3 | -2 | 19 | 2.4%
CC1O[C@@H](OC2C(O)C(O)C(CO)O[C@H]2OC2C[C@]3(C)C(CC(O)C4[C@@H]([C@]5(C)CC[C@@H](C(C)(C)O)O5)CC[C@]43C)[C@@]3(C)CCC(O)C(C)(C)C23)C(O)C(O)C1O (some centres not stated)
→ -0.6 | 25 | -2.7 | 9 | -24 | 0.6%
N#C/C(=C\c1cccc(OC(=O)c2cccs2)c1)C(N)=O
→ -0.5 | -2 | 2.1 | -15 | 15 | 1.1%
Cc1ccc(C(O)c2ncc(-c3ccccc3C)[nH]2)cc1 (configuration not stated)
→ -0.9 | . | 2.9 | -4 | -12 | 0.4%
N#Cc1ccccc1NC(=O)CSc1nnc(-c2ccccc2O)n1-c1ccccc1
→ 0.8 | 3 | -0.7 | -5 | -10 | 12%[38.3 µM]
OC[C@@H]1CN(Cc2cccs2)C[C@H](n2cnc3c(N4CCOCC4)ncnc32)O1
→ -0.4 | . | -3.5 | 5 | -6 | -0.2%
CCN1CCN(CCCN(Cc2ccco2)C(=S)Nc2cc(Cl)ccc2C)CC1
→ -1.1 | -2 | -8.8 | -1 | -14 | 0.2%
N#Cc1nccnc1S(=O)(=O)c1cccs1
→ 1.2 | 12 | -4.8 | -9 | -9 | 4.1%

More structures:
SMILES | TRPML1 agonist | TRPML1 inh | D2 agonist | Six1-Eya2 blk | D2 potentiator | PINK1 modulator
CCCn1c2ccccc2c2cnn(CC(=O)OC)c(=O)c21 | -1.6 | 10 | -2.8 | 1 | -12 | -0.8%
CC(=O)c1ccc(NS(=O)(=O)c2ccc3[nH]c4c(c3c2)CCCCCC4)cc1 | -0.2 | 4 | . | . | . | 17%
Cc1nc2ccn(Cc3cccnc3)c(=O)c2cc1C(=O)N1CCN(c2ccccc2)CC1 | 3.7 | -3 | . | . | . | -0.5%
C[C@H](CO)N1C[C@H](C)[C@@H](CN(C)S(C)(=O)=O)Oc2ccc(NS(=O)(=O)c3ccccc3)cc2C1=O | -0.5 | -8 | -2.0 | 5 | -3 | 0.1%
O=C(NC1CCS(=O)(=O)C1)c1c(NC(=O)C2COc3ccccc3O2)sc2c1CCCC2 (configuration not stated) | 1.0 | 23 | -1.1 | -15 | -1 | ?
Oc1ccccc1CC=NC1CCCCC1 | 0.0 | 3 | -2.2 | 0 | -15 | 0.1%
COC(=O)c1ccc(NC(=O)c2cc3cc4ccc(OC)c(Cl)c4nc3s2)cc1 | -0.2 | 4 | . | . | . | 0.1%
CCN(CC)CCCNCC(=O)Nc1ccc2c(c1)CCC2 | 1.4 | 11 | -4.0 | -2 | -2 | 1.4%
CCCCCC(=O)N/N=C(\C)c1ccc(Cl)cc1 | 1.0 | 10 | -2.3 | 4 | -4 | 3.0%[38.3 µM]
CC(C)(C)C(=O)NC1(C(F)(F)F)C(=O)Nc2c1c(=O)[nH]c(=O)n2Cc1ccco1 (configuration not stated) | 3.6 | -9 | 3.1 | 5 | -6 | -0.3%

Source: PubChem BioAssay (National Center for Advancing Translational Sciences (NCATS))
